NOMO-1 viab: NOMO-1 AML cell viability reduction, primary screen, STK33 inhibitor project, CellTiter-Glo luminescence; NOMO-1 AML viability, 72 h; inhibition, % (test concentration not listed); actives 7.5% (n = 37,000);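 active means most replicates above 80%; inconclusive means exactly half above 80%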;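 further: wells of about 30 µL received 25 nL stock; 0% = median of vehicle wells and 100% = reference inhibitor level; the first replicate is given; inactives centre near 10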
* hit, by the source's call. Some of the compounds tested; the hit share may differ from the screen's.

C[C@@H]1CN([C@H](C)CO)C(=O)Cc2cc(NS(C)(=O)=O)ccc2O[C@@H]1CN(C)Cc1ccc(Cl)c(Cl)c1 was read as NOMO-1 viab 23.5.
For Cc1noc(C)c1S(=O)(=O)N(C)C[C@H]1Oc2c(NS(=O)(=O)c3cn(C)cn3)cccc2C(=O)N([C@@H](C)CO)C[C@@H]1C the results were NOMO-1 viab -5.3.
For COC(=O)C1=C(C)NC(=O)NC1c1cccc(OC)c1OCc1ccccc1 (configuration not stated) the results were NOMO-1 viab 24.1.
For Cc1ccc(S(=O)(=O)Nc2ccc3c(c2)CC(=O)N([C@H](C)CO)C[C@H](C)[C@H](CN(C)Cc2ccc4c(c2)OCO4)O3)cc1 the results were NOMO-1 viab 31.4.
Screening COc1ccc(NC(=O)Nc2ccc3c(c2)C(=O)N([C@H](C)CO)C[C@@H](C)[C@@H](CN(C)Cc2ccc4c(c2)OCO4)O3)cc1 returned NOMO-1 viab 9.4.
For C[C@H]1CN([C@@H](C)CO)C(=O)c2cc(NS(=O)(=O)c3ccc(F)cc3)ccc2O[C@H]1CN(C)C(=O)Nc1ccc(C(F)(F)F)cc1 the results were NOMO-1 viab 7.4.
`C[C@H]1CN([C@@H](C)CO)C(=O)c2cc(NS(=O)(=O)c3ccccc3)ccc2O[C@H]1CN(C)Cc1ccccc1` gave NOMO-1 viab 16.1.
Screening Cc1ccc(C(=O)CSc2nc3ccccc3o2)cc1[N+](=O)[O-] returned NOMO-1 viab 1.5.
Screening C[C@H]1CN([C@@H](C)CO)C(=O)Cc2cc(NS(=O)(=O)c3ccc(F)cc3)ccc2O[C@H]1CN(C)Cc1ccc(C(=O)O)cc1 returned NOMO-1 viab 14.7.
CCc1ccc(-n2nc3cc(C)c(NC(=O)COc4ccccc4[N+](=O)[O-])cc3n2)cc1 was read as NOMO-1 viab 6.9.
Screening C/C(=C\CC[C@@H](C)[C@H]1CC(O)[C@@]2(C)C3CC[C@H]4C(C)(C)[C@@H](O[C@@H]5OC(CO)C(O)C(O)C5OC5OC(CO)C(O)C(O)C5O)CC[C@@]45C[C@@]35CC(O)[C@]12C)C(=O)O (some centres not stated) returned NOMO-1 viab 33.5.
For C[C@@H]1CN([C@H](C)CO)C(=O)c2cc(NC(=O)CCC(F)(F)F)ccc2O[C@@H]1CN(C)Cc1ccc(Cl)c(Cl)c1 the results were NOMO-1 viab 18.9.

In the list so far, two have a Cl atom:
C[C@@H]1CN([C@H](C)CO)C(=O)Cc2cc(NS(C)(=O)=O)ccc2O[C@@H]1CN(C)Cc1ccc(Cl)c(Cl)c1 was read as NOMO-1 viab 23.5.
For C[C@@H]1CN([C@H](C)CO)C(=O)c2cc(NC(=O)CCC(F)(F)F)ccc2O[C@@H]1CN(C)Cc1ccc(Cl)c(Cl)c1 the results were NOMO-1 viab 18.9.

New compounds follow.
Screening C[C@H]1CN([C@@H](C)CO)C(=O)c2cccc(NC(=O)C3CC3)c2O[C@H]1CN(C)S(C)(=O)=O returned NOMO-1 viab -13.4.
`CC(C)NC(=O)N(C)C[C@@H]1Oc2ccc(NS(=O)(=O)c3ccc(Cl)cc3)cc2CC(=O)N([C@@H](C)CO)C[C@@H]1C` gave NOMO-1 viab 6.0.
For O=C(NCCNc1ccc([N+](=O)[O-])cc1)c1ccco1 the results were NOMO-1 viab 14.4.
`Cc1ccc(F)c(NC(=O)CSc2nnc(-c3ccccc3)n2C)c1` gave NOMO-1 viab 3.6.
For CC(C)NC(=O)N(C)C[C@@H]1Oc2ccc(NS(=O)(=O)c3ccc(Cl)cc3)cc2C(=O)N([C@@H](C)CO)C[C@@H]1C the results were NOMO-1 viab 30.1.
Screening COc1ccc(CN(C)C[C@@H]2Oc3ccc(NC(=O)CCC(F)(F)F)cc3CC(=O)N([C@H](C)CO)C[C@H]2C)cc1 returned NOMO-1 viab 0.0.
Screening COc1ccc(CN(C)C[C@H]2Oc3c(NC(=O)c4ccc(-c5nccs5)cc4)cccc3C(=O)N([C@H](C)CO)C[C@@H]2C)cc1 returned NOMO-1 viab 47.0.
Screening C[C@@H]1CCCCO[C@@H](CN(C)CC2CC2)[C@@H](C)CN([C@H](C)CO)C(=O)c2cc(N(C)C)ccc2O1 returned NOMO-1 viab 10.9.
`CC(C)NC(=O)N(C)C[C@@H]1Oc2c(NC(=O)Nc3ccccc3)cccc2C(=O)N([C@H](C)CO)C[C@H]1C` gave NOMO-1 viab 4.3.
For C[C@H]1CN([C@@H](C)CO)C(=O)c2cccc(NS(=O)(=O)c3ccccc3)c2O[C@@H]1CN(C)S(=O)(=O)c1ccc(Cl)cc1 the results were NOMO-1 viab 7.2.
For NCc1cn[nH]c1-c1ccccc1 the results were NOMO-1 viab 25.8.
C[C@H](CO)N1C[C@H](C)[C@H](CN(C)S(=O)(=O)c2ccc(Cl)cc2)Oc2ccc(N(C)C)cc2C1=O was read as NOMO-1 viab -6.8.
Screening COc1ccc2ccc(=O)oc2c1CC(O)C(C)(C)OC (configuration not stated) returned NOMO-1 viab -1.6.
For C[C@@H]1CN([C@H](C)CO)C(=O)c2cc(NC(=O)C3CC3)ccc2O[C@H]1CN(C)C(=O)Nc1ccc(C(F)(F)F)cc1 the results were NOMO-1 viab 6.3.
`C[C@@H]1CN([C@@H](C)CO)C(=O)Cc2cc(NS(=O)(=O)c3cccs3)ccc2O[C@@H]1CN(C)C(=O)Nc1ccc(C(F)(F)F)cc1` gave NOMO-1 viab 17.5.
For Cc1ccc(C(=O)c2coc3ccc(O)c(CN(C)C)c23)cc1 the results were NOMO-1 viab 35.6.
CN(CC(=O)Nc1ccccc1Sc1ccccc1)S(=O)(=O)c1ccc(F)cc1 was read as NOMO-1 viab 55.8.
For C[C@H]1CN([C@@H](C)CO)C(=O)Cc2cc(N(C)C)ccc2O[C@@H]1CN(C)Cc1ccc(-c2ccccc2)cc1 the results were NOMO-1 viab 65.8.
`C[C@H](CO)N1C[C@H](C)[C@H](CN(C)C(=O)Nc2ccc3c(c2)OCO3)Oc2c(NS(=O)(=O)c3ccc(Cl)cc3)cccc2C1=O` gave NOMO-1 viab 66.4.
Cc1noc(C)c1NC(=O)Nc1ccc2c(c1)C(=O)N([C@@H](C)CO)C[C@@H](C)[C@@H](CN(C)S(=O)(=O)c1cn(C)cn1)O2 was read as NOMO-1 viab 20.5.
For CC(C)NC(=O)N(C)C[C@@H]1Oc2c(NC(=O)C3CCOCC3)cccc2C(=O)N([C@H](C)CO)C[C@@H]1C the results were NOMO-1 viab 8.4.
Screening C[C@@H]1CCC[C@H](C)N1NC(=O)c1ccc(Cl)c(S(N)(=O)=O)c1 returned NOMO-1 viab 1.0.
`CS(=O)(=O)Nc1ccc(C(=O)CC2(O)C(=O)Nc3ccc(Br)cc32)cc1` (configuration not stated) gave NOMO-1 viab -13.9.
For C[C@H]1CN([C@@H](C)CO)C(=O)c2cccc(NC(=O)c3cnccn3)c2O[C@H]1CN(C)C(=O)Nc1ccc2c(c1)OCO2 the results were NOMO-1 viab 8.4.
`O=C(COc1ccc(Br)cc1)Nc1ccc2nn(-c3ccc(F)cc3)nc2c1` gave NOMO-1 viab 14.0.
`CCOC(=O)c1cnc(SC2CC(=O)N(c3cccc(F)c3)C2=O)nc1N` (configuration not stated) gave NOMO-1 viab -6.8.
Screening Cc1noc(C)c1NC(=O)N(C)C[C@@H]1Oc2ccc(NC(=O)CCCCCC(=O)Nc3ccccc3N)cc2CC(=O)N([C@H](C)CO)C[C@H]1C returned NOMO-1 viab 18.2.
Screening COc1ccc(S(=O)(=O)N(C)C[C@H]2Oc3ccc(NC(=O)Nc4c(C)noc4C)cc3C(=O)N([C@H](C)CO)C[C@H]2C)cc1 returned NOMO-1 viab 8.0.
Screening COc1ccc(C(=O)Nc2ccc(S(=O)(=O)Nc3cc(C)on3)cc2)cc1 returned NOMO-1 viab 36.5.
C[C@@H]1CN([C@H](C)CO)C(=O)Cc2cc(N(C)C)ccc2O[C@@H]1CN(C)S(C)(=O)=O was read as NOMO-1 viab -3.2.
C[C@H](CO)N1C[C@H](C)[C@H](CN(C)Cc2ccc(C(F)(F)F)cc2)Oc2c(NC(=O)Nc3cccc4ccccc34)cccc2C1=O was read as NOMO-1 viab 112.1*.
For O=C(O)CCC(=O)Nc1ccc(Cc2ccncc2)cc1 the results were NOMO-1 viab -16.2.
For COc1ccc(OC)c(S(=O)(=O)N2CCC(C(=O)Nc3ccc(OC)c(Cl)c3)CC2)c1 the results were NOMO-1 viab -6.8.
`C[C@H]1CN([C@@H](C)CO)C(=O)c2cc(NS(C)(=O)=O)ccc2O[C@@H]1CN(C)CC1CC1` gave NOMO-1 viab -1.3.
C[C@H](CO)N1C[C@H](C)[C@@H](CN(C)S(=O)(=O)c2cccs2)Oc2c(NC(=O)Nc3cccc4ccccc34)cccc2C1=O was read as NOMO-1 viab 12.4.
For COc1ccc(-c2nn(C)c(=O)c3ccccc23)cc1NC(=O)COc1ccc(C)cc1 the results were NOMO-1 viab 20.4.
Cc1ccc(-c2cc(C(=O)NCCN3CCOCC3)c3cccc(C)c3n2)c(C)c1 was read as NOMO-1 viab 8.9.
For C[C@H]1CN([C@@H](C)CO)C(=O)Cc2cc(NS(=O)(=O)c3ccc(Cl)cc3)ccc2O[C@@H]1CN(C)S(=O)(=O)c1ccc(F)cc1 the results were NOMO-1 viab 19.0.
`C[C@H]1CN([C@@H](C)CO)C(=O)c2cc(NC(=O)C3CC3)ccc2O[C@H]1CN(C)C(=O)Nc1ccc(F)cc1` gave NOMO-1 viab 14.0.
`O=C(NCCN1CCOCC1)c1cccc(S(=O)(=O)N2CCCCC2)c1` gave NOMO-1 viab -5.3.
C[C@H](CO)N1C[C@H](C)[C@@H](CN(C)Cc2ccc(Oc3ccccc3)cc2)Oc2ccc(NC(=O)Cn3cnnn3)cc2C1=O was read as NOMO-1 viab 18.6.
For Cc1ccc(S(=O)(=O)N(C)C[C@H]2Oc3ccc(NC(=O)Nc4ccc(C(F)(F)F)cc4)cc3C(=O)N([C@@H](C)CO)C[C@@H]2C)cc1 the results were NOMO-1 viab -5.2.
For CCc1ccc2oc(-c3cc(NC(=O)COc4ccc(OC)cc4)ccc3Cl)nc2c1 the results were NOMO-1 viab 31.6.
`C[C@H](CO)N1C[C@H](C)[C@@H](CN(C)S(=O)(=O)c2ccc(Cl)cc2)Oc2ccc(NC(=O)CCCCCC(=O)Nc3ccccc3N)cc2C1=O` gave NOMO-1 viab 20.6.
For Cc1onc(-c2ccccc2Cl)c1C(=O)NC(=S)NCc1ccco1 the results were NOMO-1 viab -1.7.
`Nc1nc(SCC(=O)N2CCc3ccccc32)n[nH]1` gave NOMO-1 viab 27.6.
`Cc1ccc(S(=O)(=O)c2nc(NCCN(C)C)sc2Cl)cc1` gave NOMO-1 viab 11.9.
C[C@H](CO)N1C[C@H](C)[C@@H](CN(C)CC2CC2)Oc2c(NC(=O)Nc3ccc(C(F)(F)F)cc3)cccc2C1=O was read as NOMO-1 viab 98.5*.

Quoted from the entries so far for reference:
For C[C@H]1CN([C@@H](C)CO)C(=O)Cc2cc(NS(=O)(=O)c3ccc(Cl)cc3)ccc2O[C@@H]1CN(C)S(=O)(=O)c1ccc(F)cc1 the results were NOMO-1 viab 19.0.
`C[C@H]1CN([C@@H](C)CO)C(=O)c2cc(NC(=O)C3CC3)ccc2O[C@H]1CN(C)C(=O)Nc1ccc(F)cc1` gave NOMO-1 viab 14.0.
`O=C(NCCN1CCOCC1)c1cccc(S(=O)(=O)N2CCCCC2)c1` gave NOMO-1 viab -5.3.
C[C@H](CO)N1C[C@H](C)[C@@H](CN(C)Cc2ccc(Oc3ccccc3)cc2)Oc2ccc(NC(=O)Cn3cnnn3)cc2C1=O was read as NOMO-1 viab 18.6.
For Cc1ccc(S(=O)(=O)N(C)C[C@H]2Oc3ccc(NC(=O)Nc4ccc(C(F)(F)F)cc4)cc3C(=O)N([C@@H](C)CO)C[C@@H]2C)cc1 the results were NOMO-1 viab -5.2.
For CCc1ccc2oc(-c3cc(NC(=O)COc4ccc(OC)cc4)ccc3Cl)nc2c1 the results were NOMO-1 viab 31.6.
`C[C@H](CO)N1C[C@H](C)[C@@H](CN(C)S(=O)(=O)c2ccc(Cl)cc2)Oc2ccc(NC(=O)CCCCCC(=O)Nc3ccccc3N)cc2C1=O` gave NOMO-1 viab 20.6.

Continuation.
For CNC(=O)Cc1coc2ccc3ccccc3c12 the results were NOMO-1 viab 15.5.
C[C@H]1CN([C@@H](C)CO)C(=O)Cc2cc(NS(=O)(=O)c3ccc(Cl)cc3)ccc2O[C@@H]1CN(C)Cc1ccc(-c2ccccc2)cc1 was read as NOMO-1 viab 124.2*.
For C[C@@H]1CCCCO[C@@H](CN(C)Cc2ccc(C(F)(F)F)cc2)[C@@H](C)CN([C@H](C)CO)C(=O)c2cc(NS(=O)(=O)c3cn(C)cn3)ccc2O1 the results were NOMO-1 viab 13.9.
C[C@@H]1CN([C@@H](C)CO)C(=O)c2cccc(NS(=O)(=O)c3ccccc3)c2O[C@@H]1CN(C)Cc1ccccc1 was read as NOMO-1 viab 10.8.
CC(C)NC(=O)N(C)C[C@H]1Oc2ccc(NS(=O)(=O)c3ccc(Cl)cc3)cc2CC(=O)N([C@@H](C)CO)C[C@@H]1C was read as NOMO-1 viab -8.2.
For Cc1ccc(-c2nnc(SCC(=O)Nc3ccc(Br)c(C)c3)n2C)cc1 the results were NOMO-1 viab 18.9.
`Cc1ccc(S(=O)(=O)N(C)C[C@H]2Oc3ccc(NS(C)(=O)=O)cc3C(=O)N([C@@H](C)CO)C[C@H]2C)cc1` gave NOMO-1 viab 4.1.
`C[C@H](CO)N1C[C@H](C)[C@@H](CN(C)Cc2ccc(Cl)c(Cl)c2)Oc2ccc(NC(=O)CCC(F)(F)F)cc2C1=O` gave NOMO-1 viab 30.7.
Screening COC(=O)c1ccccc1NC(=O)Cn1nnc(-c2ccc(SC)cc2)n1 returned NOMO-1 viab 5.0.
Screening CC(C)(C)N1C(=O)c2ccccc2C1=O returned NOMO-1 viab -2.2.
`Cc1ccc(S(=O)(=O)N(C)C[C@H]2Oc3c(NC(=O)Nc4cccc5ccccc45)cccc3C(=O)N([C@H](C)CO)C[C@H]2C)cc1` gave NOMO-1 viab -0.2.
For Cc1cc2ncn(CC(O)COc3ccccc3Cl)c2cc1C (configuration not stated) the results were NOMO-1 viab inconclusive.
For C[C@@H]1CN([C@H](C)CO)C(=O)Cc2cc(NS(=O)(=O)c3cn(C)cn3)ccc2O[C@@H]1CN(C)Cc1ccc(C(F)(F)F)cc1 the results were NOMO-1 viab 18.6.
For Cc1cccc(-c2nnc(SCC(=O)Nc3ccc(Br)cc3C(C)C)n2C)c1 the results were NOMO-1 viab -12.9.
